Screens as filed in PubChem BioAssay.
H5N1 CPE: MDCK cell protection from H5N1 avian flu; cytopathic effect, luminescence, 72 h; stronger effect = higher value; no value below 0 was filed and about half of the inactive calls have no number; reference of the scale not given here; inhibition, % at 50 µM; 96,000 compounds, 0.07% hits; AID 740, 2007; in the data active = inhibition above about 25%
* marks the source's active call; other numbers are inactive results; i = inactive. These rows are one share of the data, so the mix of outcomes need not match the whole.

structure,H5N1 CPE
CCOC(=O)c1c2n(c3ccc(O)cc13)CCCCC2,0.1
Cc1cnc(NC(=O)CSc2nnc(-c3ccncc3)n2C2CCCCC2)s1,0.3
Cn1c(O)c(C(c2ccccn2)c2c(O)n(C)c(=S)[nH]c2=O)c(=O)[nH]c1=S,i
COc1ccc2c(c1)C1CC(C)(NC(=O)C1C(=O)c1ccccc1)O2 (stereo unspecified),0.3
O=C(CN(c1ccc(Cl)c(C(F)(F)F)c1)S(=O)(=O)c1ccccc1)N/N=C/c1cccc2c1OCCO2,i
O=C(CCC1N=C2c3ccccc3N=C(SCc3ccc(F)cc3)N2C1=O)NCc1ccco1 (stereo unspecified),0.6
COC(=O)c1ccc(S(=O)(=O)c2ccccc2)c(N)c1,0.8
COc1ccc(S(=O)(=O)CCC(=O)N2c3ccccc3CC2C)cc1 (stereo unspecified),i

The listing continues:
structure,H5N1 CPE
COc1ccc(OC)c(S(=O)(=O)N2CCC(C(=O)N3CCN(Cc4ccccc4)CC3)CC2)c1,i
Cn1c(CCNC(=O)c2ccc(Cl)cc2)n[nH]c1=S,0.5
COc1ccc(-n2c(N)c(Br)c(=O)[nH]c2=O)cc1,i
Cc1ccc(S(=O)(=O)NCC(=O)N(CC(=O)NCc2ccco2)Cc2ccc3c(c2)OCO3)cc1,0.3
CCOC(=O)c1c(NC(=O)C(F)(OC)C(F)(F)F)sc(C(=O)N2CCCCC2)c1C (stereo unspecified),i
Cc1ccc(-c2csc(NC(=O)CSc3nc(C)cc(=O)[nH]3)n2)cc1,i
COc1ccc(C2C(=O)N(C3CCCCC3)CC(=O)N2Cc2ccc3c(c2)OCO3)cc1 (stereo unspecified),0.0
CC(C)CCn1cnc2c(cnn2-c2ccc(Cl)cc2)c1=O,1.2

Continued:
structure,H5N1 CPE
COc1cccc(C(=O)N2CCCc3ccccc32)c1,i
COCCn1c(=S)[nH]c2cc(C(=O)N3CCC(C(N)=O)(N4CCCCC4)CC3)ccc2c1=O,i
CCOc1cc(C(=O)Nc2ccc3c(c2)OCO3)ccc1OC(F)F,i
O=C(CCCC(=O)OCC(=O)c1ccc(Cl)cc1Cl)Nc1cc(C(F)(F)F)ccc1Cl,i
CCOC(=O)C1C(=O)NC(N2CCN(CC)CC2)=NC1c1ccccc1 (stereo unspecified),0.9
CCOc1ccc(-n2c(=S)sc3c(=O)[nH]c(SCC(=O)N4CCC(C)CC4)nc32)cc1,1.9
N#Cc1c(-c2ccccc2)ccnc1Oc1ccccc1,i
CCOC(=O)C1CCCN(C(=O)N2CCOCC2)C1 (stereo unspecified),0.1

The final 2 records of the part above open the next one:
structure,H5N1 CPE
N#Cc1c(-c2ccccc2)ccnc1Oc1ccccc1,i
CCOC(=O)C1CCCN(C(=O)N2CCOCC2)C1 (stereo unspecified),0.1
Cc1cc(-n2nc(C)cc2C)nc(NS(=O)(=O)c2ccccc2Cl)n1,i
O=C(CN1CCN(c2ncccn2)CC1)N(Cc1ccccc1)c1ccc(F)cc1,i
N=C1C(c2ccccc2)=C(O)C2CCc3ccccc3N12 (stereo unspecified),0.1
Cc1ccc(-c2cn(S(=O)(=O)c3ccc(C)cc3)nc2N)cc1,0.4
CCCCc1ccc(NC(=O)CC(C)=O)cc1,i
CC(C)(C)Nc1nc(NN)nc(NC(C)(C)C)n1,i
CC(=O)N1C(=O)C2(C(C#N)=C(N)Oc3c2c(C)nn3-c2ccccc2)c2ccccc21 (stereo unspecified),0.1
O=C(Nc1nccs1)c1ccc(S(=O)(=O)NCC2CCCCC2)cc1,i

Laid out differently: 4 of the compounds above
> N=C1C(c2ccccc2)=C(O)C2CCc3ccccc3N12 (stereo unspecified)
  H5N1 CPE = 0.1
> CC(C)(C)Nc1nc(NN)nc(NC(C)(C)C)n1
  H5N1 CPE = i
> Cc1cc(-n2nc(C)cc2C)nc(NS(=O)(=O)c2ccccc2Cl)n1
  H5N1 CPE = i
> O=C(CN1CCN(c2ncccn2)CC1)N(Cc1ccccc1)c1ccc(F)cc1
  H5N1 CPE = i

Additional records follow:
structure,H5N1 CPE
CCc1nnc(NC(=O)c2cccc(S(=O)(=O)N3CCN(c4ccccc4)CC3)c2)s1,0.5
O=C(Nc1ccccc1N1CCCC1)c1ccco1,0.2
COc1ccccc1-c1c(C)nn2c(C)c(C(C)=O)cnc12,i
CCCCN(CCCC)CC1OCc2ccccc2CO1,0.6
Cc1ccc(Cn2nnnc2CN2CCC(n3nnc4ccccc43)CC2)cc1,0.5
COc1ccc(Nc2nc(-c3cccs3)cs2)c(OC)c1,i
CCn1ncc(C2=NOC(C(=O)Nc3ccccc3C(=O)OC)C2)c1C (stereo unspecified),1.3
O=c1c2ccccc2nc(SCc2cc(F)ccc2F)n1C1CCCC1,0.7

Going on with the list:
structure,H5N1 CPE
CC1CCc2c(sc3nc(CN4CCOCC4)nc(NS(=O)(=O)c4cccc([N+](=O)[O-])c4)c23)C1 (stereo unspecified),1.5
C=CCn1c(-c2cc(Cl)ccc2OC)n[nH]c1=S,1.3
CC(=O)Nc1nonc1-c1ccccc1,1.3
CN(CC(=O)NC(=O)NCc1ccco1)Cc1nc2ccccc2c(=O)[nH]1,1.6
CCOc1ccc(-c2nnn(CC(=O)NCc3cccs3)n2)cc1,i
COc1ccc(N/N=C(/N=Nc2nc(C)cc(=O)[nH]2)c2ccccc2)cc1,i
CCOC(=O)CSC1=C(C#N)C(c2ccco2)C(C(=O)OCc2ccccc2)=C(C)N1 (stereo unspecified),0.7
CCCCCCNC(=O)CC(NS(=O)(=O)c1ccc(NC(C)=O)cc1)C(C)C (stereo unspecified),i

Additional records:
structure,H5N1 CPE
COc1cc(C(=O)OC(C)C(=O)NCC2CCCCC2)cc(NC(=O)c2ccco2)c1OC (stereo unspecified),i
N/C(CCN1CCCCC1)=N/O,i
CC(C)OC(=O)CSc1nc2c(c(C3CC=CCC3)c1C#N)CCC2 (stereo unspecified),2.5
Cc1ccc(C(=O)CC2(O)C(=O)N(Cc3ccccc3)c3ccccc32)o1 (stereo unspecified),i
CCOC(=O)N1CCN(c2cc3nccnc3cc2F)CC1,0.1
CCC(=O)Nc1ccc(C(=O)n2nc(C)cc2C)cc1,i
O=C(/C=C/c1ccccc1)NNC(=O)c1cccnc1,i
COc1ccc2c(c1)CC1(CN2C)C(=O)NC(=O)N(c2ccc(F)cc2)C1=O (stereo unspecified),0.3

(further entries)
structure,H5N1 CPE
COc1ncnc2c1N=C1CC(C)(C)CC(N)=C1S2,i
COCCCNC(=O)CCCOc1ccccc1,i
Cn1c(Nn2cnnc2)nc2ccccc21,1.0
O=S(=O)(N/N=C\c1cccn1-c1ccccc1)c1ccc2ccccc2c1,1.5
COc1ccc(C(=O)Nc2ccc(Cl)cc2C(=O)NCc2ccco2)cc1OC,i
CCCOc1ccc(C(=O)NC(=S)Nc2nc3ccccc3s2)cc1,i
O=C1NCCCC1C(=O)NCCNC(=O)C(F)(F)F (stereo unspecified),0.1
O=C(c1cccs1)n1nc(-c2ccc(Cl)cc2)nc1NCc1ccco1,i

New compounds follow.
structure,H5N1 CPE
FC(F)(F)c1ccc2c(c1)ncn2C1CCN(Cc2nnnn2C2CCCCC2)CC1,0.5
Cn1c(=O)c2c(nc(N3CCCCCC3)n2CC(=O)c2ccc(Br)cc2)n(C)c1=O,1.0
Cc1nn(CC(=O)NCc2cccc3ccccc23)c(=O)c2ccccc12,0.7
O=C(NC1=NCCS1)c1ccncc1,0.4
COc1ccc(C(=O)CC(Nc2ccc([N+](=O)[O-])cc2)c2ccc(Cl)cc2)cc1 (stereo unspecified),1.4
CCc1cccc(OCCCN2C(=O)NC(C)(C)C2=O)c1,i
c1ccc(N=P(c2nc3ccccc3o2)(N2CCOCC2)N2CCOCC2)cc1,0.2
Cc1ccc(N(C)C(=O)N2CCN(c3ccccn3)CC2)cc1,0.9

The list goes on:
structure,H5N1 CPE
Cc1c(NC(=O)c2cc(CC(C)C)on2)c(=O)n(-c2ccccc2)n1C,0.5
COc1cc(NC(=O)CN2C(=O)c3ccccc3C2=O)c(C(=O)O)cc1OC,i
O=C(O)c1ccc(CS(=O)c2cccc(C(F)(F)F)c2)o1 (stereo unspecified),1.3
COc1ccccc1/C=C1\NC(=S)N(CC2CCCO2)C1=O (stereo unspecified),i
CC(C)C(NC(=O)OCc1ccccc1)C(=O)O (stereo unspecified),i
CC(C)(C)NS(=O)(=O)c1ccc(CCC(=O)Nc2ccc3c(c2)OCO3)cc1,i
O=C(c1cc(Br)ccc1Cl)N1CCC2(CC1)OCCO2,0.6
O=C1NCCc2c1[nH]c1c(Cl)ccc(Cl)c21,0.8

(cont.)
structure,H5N1 CPE
CCOC(=O)C1CCN(c2nc3ccccc3nc2C(C#N)C(=O)NCCc2ccccc2)CC1 (stereo unspecified),i
CCOC(=O)N1CCC(NC(=O)CCc2c(C)nc3c(c(C)nn3C(C)(C)C)c2C)CC1,3.4
C=CCn1c(COc2ccc3c(c2)CCCC3)nnc1SCC(=O)Nc1cccc(SC)c1,i
CC1CCCCN1C(=O)Cc1ccc(Cl)cc1 (stereo unspecified),0.5
CCOc1cc(S(=O)(=O)N2CC=C(c3ccc(F)cc3)CC2)c(OCC)cc1-n1cnnn1,i
O=C(Cn1cncn1)NCc1cccc2ccccc12,i
COc1cccc(OCCNc2cc(Cl)ccc2[N+](=O)[O-])c1,0.2
CC1=C(C(=O)N2CCOCC2)C(c2ccccc2F)C2=C(CCCC2=O)N1 (stereo unspecified),0.3

Other compounds.
structure,H5N1 CPE
COCCN(Cc1cc2cc3c(cc2n2nnnc12)OCO3)C(=O)c1ccccc1F,i
O=c1[nH]c(=O)n(CCc2ccccc2)c(O)c1C=NCc1ccc2c(c1)OCO2,0.1
O=C(NCc1ccncc1)Nc1ccccc1Cl,0.0
O=c1sc(Nc2ccccc2)nc2ccsc12,i
COC(=O)C1CCN(C(=O)COC(=O)Cc2c[nH]c3ccccc23)CC1,i
COc1ccc(C(=O)N/N=C/C(C)c2ccccc2)cc1OC (stereo unspecified),i
COc1ccc2[nH]c(=O)c(CNc3ccccc3)cc2c1,1.6
O=C(Nc1ccccc1)N(Cc1cccs1)C1CCCC1,0.8

Next section
structure,H5N1 CPE
Fc1cccc(Cl)c1CSc1nnc(CN2CCOCC2)n1-c1ccccc1,3.0
COC(=O)c1cn(NC(=O)C2CCC(C(C)(C)C)CC2)c(=O)c2ccccc12 (stereo unspecified),i
CCCCCCCCS(=O)C1CCS(=O)(=O)C1 (stereo unspecified),0.1
c1ccc(Nc2nc(N3CCOCC3)c3ccccc3n2)cc1,0.7
C=CCSc1nc(N(CC)CC)c2sccc2n1,i
CC(C)OP(=O)(OC(C)C)C1(O)C(=O)Nc2ccc(Br)cc21 (stereo unspecified),i
C/C(N)=C(/C#N)C(=O)CSc1nnnn1-c1ccc(C)cc1,0.6
O=C(c1cccc(S(=O)(=O)N2CCCC2)c1)N1CCN(c2ccccc2F)CC1,0.3

(next part)
structure,H5N1 CPE
Cc1ccc(-c2csc(Cc3nc(-c4cc5ccccc5oc4=O)cs3)n2)cc1,i
Brc1ccc2c(c1)OCCOCCOc1cc(Br)ccc1OCCOCCOCCO2,0.5
O=C(CSc1nc2ccccc2s1)NNC(=S)Nc1ccc(Br)cc1,i
COc1ccccc1NS(=O)(=O)c1cc(C(=O)NCCN2CCOCC2)ccc1Cl,i
CN1C(=O)C(CC(=O)N2CCN(C(c3ccccc3)c3ccccc3)CC2)N(C)C1=O (stereo unspecified),1.0
Cc1cc(S(=O)(=O)NC2CCCC2)ccc1F,i
O=C(NNC1=C(C(=O)C(F)(F)F)CCC1)c1ccccc1Cl,i
COCC(=O)N(Cc1cc2cc(OC)ccc2[nH]c1=O)c1ccc(C)cc1,0.2

Further results:
structure,H5N1 CPE
CCOC(=O)c1c(C)c(-c2ccccc2)n(CC(=O)N2CCN(C)CC2)c1C,i
Cc1cc(S(=O)(=O)N(Cc2ccccn2)Cc2ccco2)ccc1-n1cnnn1,i
CCOC(=O)c1c(C)[nH]c(C(=O)CSc2nnc(-c3cccs3)n2Cc2ccccc2)c1C,i
O=C(Cn1c(=O)c2c(ncn2C2CCCC2)n(Cc2ccccc2)c1=O)N1CCc2ccccc21,i
COC(=O)CN(c1cccc(F)c1)S(C)(=O)=O,i
COc1ccc2[nH]c(=O)c(CN(C(=O)c3cccnc3)c3ccc(C)cc3)cc2c1,0.4
CC(C)C(=O)NC(=S)Nc1ccccc1F,i
Cc1ccccc1Cn1c(=O)n(CCCC(=O)NCc2ccco2)c(=O)c2sccc21,1.0

Additional records.
structure,H5N1 CPE
COc1ccc(C(CC(=O)N2CCC3(CC2)OCCO3)NS(=O)(=O)c2ccc(OC)cc2)cc1 (stereo unspecified),0.7
COc1ccccc1-n1cnc2cc(NCc3ccccn3)ccc21,0.1
CCCCOCC(O)Cn1c(C)nc2ccccc21 (stereo unspecified),i
COCCn1c(C(C)C)nc2sc3ccccc3c(=O)c2c1=O,i
COc1ccc(C2CC(c3ccc(C)cc3)Nc3ncnn32)cc1 (stereo unspecified),i
CCSc1nnc(-c2ccc(Cl)cc2)c2ccccc12,0.5
Cc1cc(C)c(C2=NOC(O)(C(F)(F)F)C2)c(=O)[nH]1 (stereo unspecified),i
CCOc1ccc(-n2c(C)nc3cc(C(=O)NCc4ccco4)ccc32)cc1,0.1

(next part)
structure,H5N1 CPE
O=c1c2cccc3c2c(nn1CN1CCOCC1)-c1ccccc1-3,2.0
C/C(=C\C(=O)c1cccnc1)Nc1ccc(C)c(C)c1,i
N#CCSc1nc2c(cc1C#N)CCCCCC2,2.3
Cc1cc(C)n2c(Nc3ccc4c(c3)OCCO4)c(-c3ccco3)nc2n1,1.6
O=C(OCc1nnc(-c2ccccc2)o1)c1ccc(S(=O)(=O)NCc2ccco2)cc1,i
COCCn1c(SCC(=O)Nc2sc(C)c(C)c2C#N)nnc1C(C)C,1.3
